# CBX7 inh – CBX7 chromodomain binding inhibitors, primary screen, biochemical, AlphaScreen; Chromobox protein homolog 7 (Homo sapiens), O95931; AlphaScreen His6-CBX7 / biotin-H3K27me3 peptide binding; stronger effect = lower value; normalised signal (fraction of DMSO) (concentration not given with the values); 66,000 compounds, 1.1% hits; AID 1224903, 2016; in the data active means normalised signal below about 0.5;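 further: 100 nL library stock added to about 20 µL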
# Target sequence (O95931 whole entry, looked up): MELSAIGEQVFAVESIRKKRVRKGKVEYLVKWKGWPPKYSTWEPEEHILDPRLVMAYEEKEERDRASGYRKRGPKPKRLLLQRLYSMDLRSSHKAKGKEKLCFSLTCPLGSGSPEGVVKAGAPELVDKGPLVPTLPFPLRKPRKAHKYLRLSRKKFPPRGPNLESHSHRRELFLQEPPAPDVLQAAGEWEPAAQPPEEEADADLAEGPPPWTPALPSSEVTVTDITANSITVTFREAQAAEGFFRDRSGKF
# CBX7 inh z-score – further read-out of CBX7 inh, marked with its call; z-score; measured here: z-score of CBX7 signal; some inactives read as strong as hits; reference of the scale not given here;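 same signal on another scale; lower means less binding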
# * = called active by the depositor. Some of the compounds tested; rates above refer to the full screens.
Molecule,CBX7 inh,CBX7 inh z-score
CCOc1ccc(CN2C(=O)c3ccccc3C2C(=O)NC2CCCCCCC2)cc1OC (stereo not drawn),1,0.11
Cc1ccc(N2CC(C(=O)NC(C)c3ccccc3)CC2=O)cc1 (stereo not drawn),1,0.21
O=C(Nc1ccccn1)C1CCCN(S(=O)(=O)c2cnc[nH]2)C1 (stereo not drawn),0.95,-1.1
CC1CCc2c(oc3ccc(NS(=O)(=O)c4ccccc4)cc23)C1 (stereo not drawn),1,1.1
COC(=O)c1ccc(C(=O)Nc2ccc3nc(-c4ccncc4)[nH]c3c2)cc1,1.1,0.077
CCOc1ccccc1CNC(=O)c1cc(=O)[nH]c2ccccc12,1.1,0.057
CCc1cccc(N2C(=O)Cn3cccc3C2C(=O)NC2CCC(C)CC2)c1 (stereo not drawn),0.95,-0.89
O=C(NCC1CCCO1)c1cc2n(n1)C(C(F)(F)F)CC(c1ccc(Br)cc1)N2 (stereo not drawn),1,0.7
O=C1CC(c2ccc(F)c(F)c2)c2cc3c(cc2N1)OCCO3 (stereo not drawn),0.86,-0.19
COc1cc2c(cc1OC)C1C(C(=O)Nc3cnc4ccccc4c3)c3ccccc3C(=O)N1CC2 (stereo not drawn),0.89,-0.38
CC1COc2c(N3CCN(C)CC3)c(F)cc3c(=O)c(C(=O)Nc4ccc(F)c(F)c4)cn1c23 (stereo not drawn),1,0.47
Cc1cccc(-n2c(Cc3cc(=O)[nH]c(=O)[nH]3)nnc2SCC(=O)N2CCOCC2)c1,1.1,0.6
CCCCC(CC)c1nnc(NC(=O)c2ccc(C)cc2)s1 (stereo not drawn),0.96,-0.8
COc1ccc(C2CC(=O)N(CC(=O)N3CCCCC3)c3ccccc3S2)cc1OC (stereo not drawn),0.97,-0.39
O=C(NCCc1ccccc1)c1cc(-c2ccccc2)nc2ccccc12,0.95,-0.097
Fc1cccc(Cl)c1CSc1nc2ncc(Br)cc2[nH]1,1.1,0.85
CCOc1ccc(-n2c(C)nc3cc(C(=O)NCc4ccccc4OC)ccc32)cc1,0.92,-2
Cc1cccc(C)c1NC(=O)C1(N(C)C(=O)c2cnccn2)CCCCC1,1,0.16
CN(C)CC(=O)Nc1ccc(-c2nc3cc(NC(=O)CN(C)C)ccc3o2)cc1,0.87,-1.8
Cc1ccc(Cc2c(C)nc3c(C(=O)NCCC(C)C)cnn3c2C)cc1,0.86,-3.8
Cc1ccccc1-n1nc2c(c1NC(=O)c1ccccc1Cl)CS(=O)(=O)C2,0.92,-1.6
c1ccc(-c2nc(-c3c[nH]c4ccccc34)[nH]c2-c2ccccc2)cc1,0.8,-0.2
Cc1cc(Nc2ccc3c(c2)OCO3)n2ncnc2n1,0.98,-0.43
O=C(CSc1nnc(-c2ccccc2F)o1)Nc1nc(-c2ccccc2)cs1,1,0.87
Cc1cc(C)c(C)c(OCc2nc(-c3ccc(Cl)cc3)no2)c1,1.4,4.1
O=C(c1cc(-c2ccc(F)cc2)on1)N1CCN(c2ccc(F)cc2)CC1,1.1,0.16
CCN(CC)CCCNC(=O)c1ccc2c(c1)N(Cc1ccccc1)CCS2,0.97,-0.045
COc1ccc(-c2cc3c(n2-c2ccccc2)CC(C)(C)CC3=O)cc1,0.79,-4
CCOc1ccc(S(=O)(=O)c2cn(Cc3ccc(F)cc3)c3ccc(OC)cc3c2=O)cc1,0.93,-2.5
CC(C)c1ccc(NC(=O)C2=CCN(S(=O)(=O)c3ccc(Br)cc3)CC2)cc1,1.1,3.5

# Taken from above:
# Entry for `Cc1cccc(-n2c(Cc3cc(=O)[nH]c(=O)[nH]3)nnc2SCC(=O)N2CCOCC2)c1` under CBX7 inh: 1.1
# Entry for `CCOc1ccc(S(=O)(=O)c2cn(Cc3ccc(F)cc3)c3ccc(OC)cc3c2=O)cc1` under CBX7 inh: 0.93
# Entry for `CCN(CC)CCCNC(=O)c1ccc2c(c1)N(Cc1ccccc1)CCS2` under CBX7 inh: 0.97
# Entry for `CCc1cccc(N2C(=O)Cn3cccc3C2C(=O)NC2CCC(C)CC2)c1` (stereo not drawn) under CBX7 inh: 0.95
# Entry for `COc1ccc(C2CC(=O)N(CC(=O)N3CCCCC3)c3ccccc3S2)cc1OC` (stereo not drawn) under CBX7 inh: 0.97
# Entry for `O=C(NCCc1ccccc1)c1cc(-c2ccccc2)nc2ccccc12` under CBX7 inh z-score: -0.097

# (cont.)
Molecule,CBX7 inh,CBX7 inh z-score
O=S(=O)(Nc1nc2ccccc2nc1NCCC1=CCCCC1)c1ccccc1,0.94,-1.7
CCN(CC)CCCNC(=O)C1CCN(c2nnc(-n3cccc3)s2)CC1,0.84,-0.63
Cc1cc(Cl)ccc1OCC(=O)NCc1ccncc1,1.1,3.4
O=C(c1ccc(F)cc1)N1CCN(c2ccc(N3CCOCC3)nn2)CC1,0.97,-0.44
CCc1ccc(CNC(=O)CN2C(=O)COc3ccc(C(C)(C)C)cc32)cc1,1,-0.076
COc1ccccc1NC(=O)c1c(NC(=O)Cc2ccccc2)sc2c1CCCC2,1,1.6
COc1ccc(NC2c3ccccc3C(=O)N2c2ccc(Cl)cn2)c(OC)c1 (stereo not drawn),0.84,-2.3
Cc1ccnc(NS(=O)(=O)c2ccc(NC(=O)c3c(-c4ccccc4Cl)noc3C)cc2)n1,1.1,2.7
COc1ccc(-c2noc(CCC(=O)N3CCCC3)n2)cc1,0.83,-2.3
CC1CCC(NC(=O)Cn2ncc3c2-c2ccccc2OC3)CC1 (stereo not drawn),1.1,0.66
Cc1ccc(C(C(=O)Nc2ccc(C(C)C)cc2)N(C)C(=O)CC2NC(=O)NC2=O)cc1 (stereo not drawn),0.89,-2
CCCC(=O)NCCCc1nc2ccccc2n1CCC,1.2,1.8
O=C(NC1CCCC1)C1c2ccccc2C(=O)N1Cc1ccc(F)cc1 (stereo not drawn),0.94,-1.5
Cc1cccc(OCCn2c(=N)n(C(C)C)c3ccccc32)c1,1,0.13
Cc1ccc(NC(=O)Cn2c(SCc3ccccc3F)nc3ccncc32)c(C)c1,0.97,-1.3
O=C(CSc1nccn1-c1ccc(Cl)cc1)NCc1ccccc1,1.1,0.68
Cc1ccc(Nc2nc(C)nc3c2oc2ccc(Cl)cc23)cc1,1.1,0.51
O=C(CSc1nnc(Cc2cc(=O)[nH]c(=O)[nH]2)n1-c1ccc(F)cc1)NC1CCCCC1,0.96,-1
COc1ccc(C(=O)Nc2c3c(nn2-c2ccc(Cl)cc2)CSC3)cc1OC,0.99,-0.14
Cc1ccc2nc(Nc3nc(CSc4nnc(C)s4)cc(=O)[nH]3)nc(C)c2c1,0.91,-1.2
Cc1ccc(C)c(NC(=O)c2cnc3ccccn3c2=O)c1,1,1.3
Cc1nc2ccc(S(=O)(=O)NC(CC(C)C)C(=O)N3CCCCCC3)cc2s1 (stereo not drawn),0.98,-0.82
O=C(Cc1c(C(=O)O)[nH]c2ccc(Cl)cc12)NCc1ccc(F)cc1Cl,1.2,1.9
COC(=O)c1ccccc1NC(=O)CCc1c(C)nc2cc(-c3ccccc3OC)nn2c1C,1,0.93
Cc1ccc(OCc2nc(-c3ccccc3)no2)cc1,1.1,1.9
CCOC(=O)c1ccccc1NC(=O)CN1C(=O)CC(c2ccc(OC)cc2)Sc2ccccc21 (stereo not drawn),0.98,-0.34
FC(F)(F)c1cc(-c2cccs2)nc(-n2c(Cc3ccccc3)nc3ccccc32)n1,1,1.4
COc1cc2c(cc1OC)C(c1ccc(F)c(F)c1)CC(=O)N2 (stereo not drawn),0.91,-0.12
CC(=O)N1c2ccccc2NC(=O)CC1c1ccccc1 (stereo not drawn),0.88,-2.2
CC1(C)Cc2c(cnn2-c2ccc(Cl)cc2)-c2nc3ccccc3nc21,1.1,2.9
CC1CCCCC1NC(=O)C1c2cccn2CC(=O)N1Cc1ccccc1Cl (stereo not drawn),1,0.79
Cc1ccc(CN2C(=O)CSc3ccc(C(=O)NC4CCCCC4C)cc32)cc1 (stereo not drawn),1,0.84
CCN(CC)C(=O)c1c(NC(=O)c2ccccc2Cl)sc2c1CCCCC2,0.98,-0.022
COc1ccc(CNC(=O)C2=CCN(S(=O)(=O)c3ccc(C)cc3)CC2)cc1,1.1,1.5
Clc1ccc(OCc2nc3ccccc3n2CCCc2ccccc2)c(Cl)c1,0.92,-1.3
c1ccc(-c2cc(-c3nc(-c4cccnc4)no3)c3ccccc3n2)cc1,1,0.24
Fc1ccc(-c2cc(C(F)(F)F)n3nc(-c4ccc(Cl)cc4)cc3n2)cc1,1.1,0.68
COc1ccc(S(=O)(=O)N2CC=C(C(=O)NCCc3ccc(Cl)cc3)CC2)cc1,1,0.18
O=C(NCCc1nc2ccccc2[nH]1)c1ccc(Cl)c(Cl)c1,1,0.053
Cc1ccc(C)c(CSc2nc3ccncc3n2Cc2ccccc2F)c1,0.88,-5.8
Cc1oc(-c2ccc(Cl)cc2)nc1Cn1c(SCc2cccc(F)c2)nc2ccncc21,1,0.95
O=C(CN1CCN(Cc2ccccc2F)C1=O)NCCC1=CCCCC1,0.83,-2.3
Cc1ccc(Cl)cc1NC(=O)C1CCCN(S(=O)(=O)c2c(C)noc2C)C1 (stereo not drawn),1.2,2.6
Cc1ccc(-c2nc(S(=O)(=O)c3ccccc3)c(N3CCCCCC3)o2)cc1,0.68,-2.9
O=C(Nc1nnc(-c2ccc3c(c2)OCO3)s1)c1ccc2ccccc2c1,1,0.19
Cc1ccc(-c2csc(NC(=O)CN3C(=O)CCC3=O)n2)cc1,1,0.41
O=C(Nc1ccc2c(c1)OCCO2)C1CCCN(S(=O)(=O)c2cnc[nH]2)C1 (stereo not drawn),1,0.36
Cc1ccc(NS(=O)(=O)c2ccc3c(c2)CCC(=O)N3)c(C)c1,0.99,-0.66
CC(C)C(C(=O)Nc1ccccc1F)N1C(=O)c2ccccc2C1=O (stereo not drawn),1,0.16
N#Cc1nc(-c2ccc(F)cc2)oc1N1CCN(Cc2ccccc2)CC1,0.86,-1.6
O=C(Cc1ccccc1)Nc1cccc(-c2nc3ccccc3s2)c1,1.1,2.8
CCCCN(C)C(=O)c1c[nH]c2ccc(S(=O)(=O)N(C)c3ccc(C)c(C)c3)cc2c1=O,1.1,0.5
Cc1csc(NC(=O)c2sc3nc(C)c4c(c3c2N)CCCC4)n1,1,1.2
COC(=O)c1c(NC(=O)c2ccc(OCc3cccc(F)c3)c(OC)c2)sc(C)c1C,1.1,0.17
NS(=O)(=O)c1ccc(CCNC(=O)c2csc3c2CCCC3)cc1,0.99,-0.3
CC(NC(=O)c1cccnc1)C(c1cccs1)N1CCN(c2ccccc2F)CC1 (stereo not drawn),0.95,-0.48
N#Cc1nc(-c2ccc(F)cc2)oc1NCCCN1CCOCC1,1.1,1.6
O=C(CN1C(=O)COc2ccc(Cl)cc21)NC1CC1,1.1,0.23
CCc1ccccc1Nc1cc(C(=O)NCc2ccccc2)c2ccccc2n1,1.2,6.9
CCOC(=O)N1CCC(N2Cc3cccc(C(=O)Nc4ccc(C(C)C)cc4)c3C2=O)CC1,0.95,-1.9

# New compounds follow:
Molecule,CBX7 inh,CBX7 inh z-score
CCCCOc1ccc(NC(=O)c2cc3c(n(-c4ccc(C)cc4)c2=O)CCCC3=O)cc1,0.96,-0.88
CN(Cc1ccccc1)S(=O)(=O)c1ccc(C(=O)Nc2ccccc2-c2nc3ccccc3[nH]2)cc1,1,0.032
COc1ccccc1CNC(=O)CCN1N=C(c2ccccc2)CCC1=O,1,0.23
CC(C)c1ccc(C2=CC(c3cc(Br)ccc3OC(F)F)n3nnnc3N2)cc1 (stereo not drawn),1,1
CC(C)c1ccc(NC(=O)Cn2c(SCc3cccc(F)c3)nc3ccncc32)cc1,0.94,-1.5
CCCCC(=O)Nc1c2c(nn1-c1cccc(Cl)c1)CSC2,0.97,-1.5
O=C(CCn1c(=O)c2sccc2n(Cc2cccnc2)c1=O)NCc1ccc2c(c1)OCO2,0.9,-1.7
COc1ccc(CCN2C(=O)C3C4c5ccccc5C(C)(c5ccccc54)C3C2=O)cc1OC (stereo not drawn),0.85,-4
Cc1oc(-c2ccccc2Cl)nc1C(=O)NCCCN1CC(C)CC(C)C1 (stereo not drawn),1.1,0.47
COc1ccc(C(=O)N2CCCC(c3ccccc3)C2)cc1 (stereo not drawn),0.91,-1.9
CCOc1cc(-c2nc(-c3ccccc3)c(-c3ccc(Br)cc3)[nH]2)ccc1O,0.62,-0.38
O=C(Nc1ccc(-c2nc3ccccc3[nH]2)cc1)c1ccccc1Cl,1,0.66
CCCOc1ccc(NC(=O)c2c(-c3ccccc3)noc2C)cc1,1,0.083
CCCCSCCCNC(=O)c1ccc2c(c1)N=C(C)c1c(C)ccc(C)c1S2,0.99,-0.14
COc1cccc(CNC(=O)C2c3cc(OC)c(OC)cc3C(=O)N3CCc4ccccc4C23)c1 (stereo not drawn),0.85,-0.21
Cc1ccccc1NC(=O)CCc1c(C)nc2ncnn2c1C,0.99,-0.14
CCN(C(=O)Cc1c(C(=O)O)[nH]c2ccccc12)c1cc(C)ccc1C,0.99,-0.2
O=C1CC(c2ccc(F)cc2)C2=C(CCCC2=O)N1 (stereo not drawn),0.97,-0.35

# An excerpt of these results, as labelled records:
COc1ccccc1CNC(=O)CCN1N=C(c2ccccc2)CCC1=O
  CBX7 inh = 1; CBX7 inh z-score = 0.23
CC(C)c1ccc(C2=CC(c3cc(Br)ccc3OC(F)F)n3nnnc3N2)cc1 (stereo not drawn)
  CBX7 inh = 1; CBX7 inh z-score = 1

# Some of these compounds in order of count of non-hydrogen atoms, largest number first:
Molecule,CBX7 inh,CBX7 inh z-score
COc1cccc(CNC(=O)C2c3cc(OC)c(OC)cc3C(=O)N3CCc4ccccc4C23)c1 (stereo not drawn),0.85,-0.21
CCCCOc1ccc(NC(=O)c2cc3c(n(-c4ccc(C)cc4)c2=O)CCCC3=O)cc1,0.96,-0.88
CCCOc1ccc(NC(=O)c2c(-c3ccccc3)noc2C)cc1,1,0.083
